ClpP mod: qHTS Assay for Activators of ClpP; ATP-dependent Clp protease proteolytic subunit (Bacillus subtilis (strain 168)), P80244; purified B. subtilis ClpP, FRET peptide cleavage, 20 min; Potency, µM (top dose mostly 57.5 µM), for the others: at the highest dose activity change, negative = active; 340,000 compounds, 1.9% hits; active = well fitted falling curve with a large enough effect; inconclusive = small, poorly fitted or top-dose-only effect; inactive = no such curve, though single readings can be large or run the other way; further: potency means the concentration at half of the fitted maximal effect; the source files actives as falling curves though it sought activators and does not explain the sign; nearly all actives have a fitted effect of over 65% in size; many hits overshoot -100%
Target sequence (P80244 whole entry, looked up): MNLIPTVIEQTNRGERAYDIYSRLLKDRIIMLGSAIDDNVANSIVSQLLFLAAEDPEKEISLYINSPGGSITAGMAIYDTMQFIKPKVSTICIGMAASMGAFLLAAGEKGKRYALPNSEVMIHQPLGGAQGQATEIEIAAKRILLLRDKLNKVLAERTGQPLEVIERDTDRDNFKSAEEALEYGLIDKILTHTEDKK
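Purified B. subtilis ClpP, 10 microg/mL final in Tris/HCl pH8 with KCl, BSA, glycerol and Tween-20, cleaved an Abz/nitrotyrosine-quenched decapeptide. Fluorescence (ex 320, em 430) was read at 0 and 20 min at room temperature. Delta was normalized to 5.8 microM ADEP and DMSO/no-enzyme controls.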
TRPML1 inh: human mucolipin-1 channel inhibition; Q9GZU1; TRPML1-inducible cells, Ca2+ dye fluorescence, FDSS; active compounds read low; inhibition of EC80 agonist-evoked calcium signal; activity change, negative = inhibition, % (test concentration not listed); 390,000 compounds, 0.02% hits; AID 624415; in the data active means activity change below about -50%; inconclusive means about -30% to -50%; inactive means above about -30%;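 further: stimulus is agonist 54-4 at its EC80 concentration; on the % scale 0 is the no-effect control and ±100 the full control effect; compound concentration not given in the record; the text of the record puts the active cut at -80%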
Target sequence (Q9GZU1 whole entry, looked up): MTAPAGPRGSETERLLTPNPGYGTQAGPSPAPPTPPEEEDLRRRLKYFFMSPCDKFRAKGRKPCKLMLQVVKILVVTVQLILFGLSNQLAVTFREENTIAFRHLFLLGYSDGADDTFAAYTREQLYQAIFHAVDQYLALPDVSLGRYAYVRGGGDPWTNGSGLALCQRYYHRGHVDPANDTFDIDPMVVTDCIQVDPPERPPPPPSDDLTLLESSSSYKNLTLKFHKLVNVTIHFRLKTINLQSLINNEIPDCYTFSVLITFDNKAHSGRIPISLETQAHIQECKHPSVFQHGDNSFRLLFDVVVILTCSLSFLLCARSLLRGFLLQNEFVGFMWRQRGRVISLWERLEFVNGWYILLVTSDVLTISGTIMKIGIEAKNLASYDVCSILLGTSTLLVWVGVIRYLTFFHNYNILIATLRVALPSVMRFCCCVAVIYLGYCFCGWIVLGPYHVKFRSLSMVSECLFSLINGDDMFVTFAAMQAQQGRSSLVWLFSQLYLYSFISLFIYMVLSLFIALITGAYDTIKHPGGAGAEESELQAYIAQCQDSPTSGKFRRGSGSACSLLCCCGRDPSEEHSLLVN
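Tet-induced TRPML1-DL cells loaded with Ca8 no-wash calcium dye were read kinetically on FDSS. Compound addition was followed by EC80 agonist 54-4 (4 uM final); inhibition was read over 110 s.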
* marks the source's active call; other numbers are inactive results; u = inconclusive. Some of the compounds tested; count on the stated rates, not on these rows.

SMILES	ClpP mod	TRPML1 inh
CCSc1nnc2c(n1)OC(c1ccc(OC)cc1OC)N(C(C)=O)c1ccccc1-2 (stereo not drawn)	-0.2%	16
CCOC(=O)C(CC)n1nc(C)c2c(C)n(-c3ccc(C)cc3)nc2c1=O (stereo not drawn)	-3.5%	17
Cc1ccccc1CNC(=O)Cn1ccc2cc(S(=O)(=O)N3CCCCC3)ccc21	-27%	13
CCOc1ccccc1CNC(=O)C1CCN(S(=O)(=O)c2ccc3[nH]c(=O)ccc3c2)CC1	-11%	-15
CCOc1ccc(-c2cc(NC(=O)c3ccc(C)cc3)c(C(=O)OC)s2)cc1	u	-6
COc1ccc2[nH]cc(CCNC(=O)Nc3cc(C)cc(C)c3)c2c1	-4.5%	0
COc1ccc(OC)c2sc(N(Cc3cccnc3)C(C)=O)nc12	-0.5%	35
COc1cc(CN(C(=O)COc2ccccc2)c2ccccn2)cc(OC)c1OC	-1.2%	-18
O=C(Nc1nnc(S(=O)(=O)N2CCc3ccccc32)s1)c1ccccc1	-0.9%	-12
CCOC(=O)c1c(S(=O)(=O)N2CCC(C(=O)Nc3ccc(C)cc3C)CC2)c(C)n(C)c1C	1.3%	-10
COc1ccccc1C(=O)OCc1cc(=O)n2nc(C(C)C)sc2n1	-4.1%	20
Cc1ccc2c(c1)C(c1ccc(F)cc1)N(C(=O)c1ccc(OC(C)C)cc1)CC(=O)N2 (stereo not drawn)	-0.6%	17
COc1cc(NC(=O)c2cc(C3CC3)nc3c2c(C)nn3-c2ccccc2)cc(OC)c1	4.9%	1
COc1cccc(-c2nc3c(c(SCc4ccccc4Cl)n2)Cc2c(CO)cnc(C)c2O3)c1	-0.7%	-12
O=C(CCSCc1cnn(-c2ccccc2)c1-n1cccc1)NCc1ccccc1F	0.7%	u
CCOC(=O)C1CCN(c2ncnc3c2nnn3C)CC1	-0.3%	-11
CCOCCCn1c(=N)c(C(=O)NC2CCCC2)cc2c(=O)n3cccc(C)c3nc21	4.1%	14
COc1ccc(CNC(=O)C(=O)NCC(c2cccs2)S(=O)(=O)c2ccc(F)cc2)cc1 (stereo not drawn)	0.6%	27
Cc1ccc(NCc2cccn2-c2nnc(N3CCC(C(=O)NCc4ccc(F)cc4)CC3)s2)cc1	-2.3%	14
CCc1cccc(C)c1NS(=O)(=O)c1ccc2c(c1)NC(=O)C(C)C(=O)N2 (stereo not drawn)	1.4%	1
CC(=O)c1ccc(NS(=O)(=O)c2ccc(-n3cccn3)cc2)cc1	-19%	2
CCn1nnc2cc(C(=O)Nc3ccc(Br)cc3F)ccc21	-1.8%	5
O=C(Nc1ccc(S(=O)(=O)N2CCCCC2c2cccnc2)cc1)c1ccc(F)cc1 (stereo not drawn)	-13%	4
COc1ccc(-c2ccc(CCC(=O)O)n2CC(=O)Nc2cccc(C(F)(F)F)c2)cc1	-18%	-11
CCNc1ccc(-c2nc(-c3ccncc3)no2)cc1[N+](=O)[O-]	-1.0%	-4
CCOc1ccc(N(CC)S(=O)(=O)N2CCCC(C(=O)NCc3ccc(SC)cc3)C2)cc1 (stereo not drawn)	-2.0%	-8
COc1cc(CN(C(=O)COc2ccc(Cl)cc2)c2ccccn2)cc(OC)c1OC	-2.4%	8
Cc1ccc(N(Cc2cccs2)C(=O)c2ccc(Br)o2)cc1	0.8%	-4
COc1ccccc1CNC(=O)C1CCC(CNS(=O)(=O)c2ccc3c(c2)CCCC(=O)N3)CC1 (stereo not drawn)	-0.8%	4
Cc1ccc(CNC(=O)c2ccc3c(O)c(S(=O)(=O)c4ccccc4)c(=O)[nH]c3c2)cc1	-17%	-4
CCCOc1ccc(C(=O)Nc2cccc(NC(=O)c3ccc(Cl)cc3Cl)c2)cc1	-1.6%	16
CCOC(=O)c1c(C)n(-c2ccccc2)c2ccc(OC(=O)c3cccc(OC)c3OC)cc12	4.5%	23
Cc1ccc(C)c(OCC(=O)Nc2sc3c(c2C#N)CCCC3)c1C	-2.3%	-1
Cc1nn(-c2ccccc2)c2sc(C(=O)Nc3ccc(Cl)cc3Cl)cc12	u	-5
O=C1CCSc2ccc(S(=O)(=O)Nc3cccc(C(F)(F)F)c3)cc2N1	0.6%	9
CCCCS(=O)(=O)c1oc(-c2cccs2)nc1S(=O)(=O)c1ccccc1	u	9
Cc1ccc2nc(N3CCN(c4cccc(C)c4C)CC3)c3nncn3c2c1	-4.4%	3
Cc1c(CNC2CCCCC2)c(C(=O)O)c(C)n1Cc1cccc(Cl)c1	-0.3%	20
CCCCC(Sc1nc2cc3c(cc2c(=O)n1CCCC(=O)NCc1ccc2c(c1)OCO2)OCO3)C(=O)OCC (stereo not drawn)	1.7%	-22
COc1cccc2c1Oc1ncccc1N(C(=O)Nc1ccc(F)c(Cl)c1)C2	-9.0%	-11
COc1ccc(CCNC(=O)CCCn2c(=O)c3cccn3c3ccccc32)cc1OC	-2.9%	5
CCOC(=O)c1c(NC(=O)c2nc(S(C)(=O)=O)ncc2Cl)sc(C(C)=O)c1C	-1.0%	9
CCOc1ccccc1NC(=O)Cn1cnc2onc(-c3ccc(F)cc3)c2c1=O	-0.3%	20
CCc1ccc(CNC(=O)c2ccc(NC(=O)N3CCCCc4ccccc43)cc2)cc1	-1.8%	-26
Cc1nn(C(C)C(=O)Nc2ccccc2C(F)(F)F)c(=O)c2c1sc1ccccc12 (stereo not drawn)	-1.3%	-2
CCc1nc2c(OCc3ccc(F)cc3)cccn2c1N(C)C(=O)C(C)C	-7.4%	-2
CCCNC(=O)Cn1c(=O)c2cccn2c2cccnc21	4.2%	-19
Cc1cc2nc(-c3ccc(Br)cc3)cc(C(F)(F)F)n2n1	-4.3%	26
CCOc1ccc(NC(=O)CSc2nccn2-c2cccc(C)c2C)cc1	0.9%	-5
COc1ccc(-c2noc(CNC(=O)c3ccccc3Br)n2)cc1	0.6%	10
O=C1CC(c2ccccc2)Cc2[nH]c(=O)c(-c3nc(-c4ccc(Cl)c(Cl)c4)cs3)cc21 (stereo not drawn)	14%	-10
COc1cc(Cl)c(S(=O)(=O)N2CCN(c3c(C)cccc3C)CC2)cc1Cl	-1.1%	22
CCOC1=C2[C@@H](CN(S(=O)(=O)c3ccccc3)[C@H]2c2ccccc2)[C@H]2C(=O)N(c3ccccc3)C(=O)[C@H]2C1	1.4%	4
Cc1ccc(NC(=O)CSc2ncc3c(n2)-c2ccccc2N(C)S3(=O)=O)c(Cl)c1	27%	-1
CCOC(=O)c1ccc(NC(=O)CC2C(=O)N(c3ccc(C)cc3)C(=O)N2C2CCCC2)cc1 (stereo not drawn)	-2.3%	-11
COc1ccc(CCNS(=O)(=O)c2ccc3c(c2)CC(C)N3C(=O)C2CCC2)cc1OC (stereo not drawn)	-0.9%	-11
O=C(Cn1cc(SCc2cccc(Cl)c2)c2ccccc21)N1CCCCC1	1.6%	-13
O=[N+]([O-])c1ccc(S(=O)(=O)N2CCn3cccc3C2c2ccc(Br)cc2)cc1 (stereo not drawn)	-1.7%	-13
Cc1cc(C)cc(NC(=O)Cn2c(-c3cncs3)nc3ccccc32)c1	u	31
COc1cc(NC(=O)c2cc3nc(-c4ccccc4)cc(-c4ccccc4)n3n2)c(OC)cc1Cl	-2.2%	-14

Next section.
SMILES	ClpP mod	TRPML1 inh
Cc1cccc(NC(=O)CN2C(=O)C3(SCC(=O)N3c3ccccc3)c3ccccc32)c1 (stereo not drawn)	-4.9%	-10
CNC(=O)C1CCC(Cn2c(=O)c3sccc3n(Cc3ccccc3)c2=O)CC1 (stereo not drawn)	-1.0%	16
COc1ccccc1CNS(=O)(=O)c1ccc2c(c1)NC(=O)CC(=O)N2	-4.4%	38
Cc1nn2c(=O)cc(COc3ccc(/C=C(\C#N)C(=O)Nc4ccccc4)cc3Cl)nc2s1	-0.1%	-7
Cc1ccc(C)c(N2CCN(S(=O)(=O)c3cc(C(=O)Nc4ccc(Oc5ccccc5)cc4)ccc3F)CC2)c1	-4.6%	-27
Cc1cccc(Cn2c(=O)n(Cc3ccccc3)c(=O)c3sc4ccccc4c32)c1	-17%	-1
COc1ccccc1CNC(=O)c1ccc(CN2CC(=O)N3CCCCC3C2=O)cc1 (stereo not drawn)	-2.1%	38
CCc1c(C)sc2c1CCN(C(=O)Nc1ccccc1C(F)(F)F)C2c1ccccc1 (stereo not drawn)	-5.0%	8
CCN(c1ccccc1)c1ncnc2c1cnn2-c1ccc(C)cc1C	u	-4
CCc1nc2ccc(C(=O)NCc3cccs3)cn2c1N(CC)CCOC	-2.3%	-16
CCc1ccc(S(=O)(=O)c2nnn3c2nc(NC2CCCC2)c2sccc23)cc1	-3.5%	22
COc1ccccc1NC(=O)CSc1cn(CC(=O)N2CCCC2)c2ccccc12	-0.6%	19
Cc1ccc(S(=O)(=O)C(CNC(=O)C(=O)NCCc2ccc(Cl)cc2)c2ccco2)cc1 (stereo not drawn)	-0.3%	-3
COc1ccc2c(CNCCc3ccco3)c(C(=O)O)n(Cc3ccc(F)cc3)c2c1	-24%	-3
CC(C)(C)c1ccc(C(=O)Nc2nnc3n2CCS3)cc1	-0.3%	17
COc1ccc(NC(=O)Cn2c(=O)c3cccn3c3ccccc32)cc1	51%	-22
O=C(Nc1nnc(S(=O)(=O)N2CCc3ccccc32)s1)c1ccccc1Cl	1.9%	8
COc1ccc(-n2c(=O)c3c(c4cc(OC)ccc4n3C)n(C)c2=O)cc1	-11%	0
C[C@@H]1CN([C@H](C)CO)C(=O)CCCn2cc(nn2)CO[C@H]1CN(C)S(=O)(=O)c1ccccc1F	-1.7%	-13
O=C(Nc1ccccc1)c1cccc(S(=O)(=O)Nc2cccc(F)c2)c1	-0.6%	3
Cc1cn([C@H]2C[C@H](O)[C@@H](/C=C/C(=O)NCc3ccc(N(C)C)cc3)O2)c(=O)[nH]c1=O	-1.5%	6
O=C(c1ccco1)c1cn(CCOc2ccc(F)cc2)c2ccccc12	u	-7
Cc1onc(-c2c(F)cccc2Cl)c1C(=O)Nc1ccc(OC(C)C)cc1	-0.5%	-3
Cc1cccc(NC(=O)Cn2nc(-c3ccc(Cl)cc3)c3ccccc3c2=O)c1	u	-3

14 successive entries out of the list so far, quoted:
SMILES	ClpP mod	TRPML1 inh
CCc1c(C)sc2c1CCN(C(=O)Nc1ccccc1C(F)(F)F)C2c1ccccc1 (stereo not drawn)	-5.0%	8
CCN(c1ccccc1)c1ncnc2c1cnn2-c1ccc(C)cc1C	u	-4
CCc1nc2ccc(C(=O)NCc3cccs3)cn2c1N(CC)CCOC	-2.3%	-16
CCc1ccc(S(=O)(=O)c2nnn3c2nc(NC2CCCC2)c2sccc23)cc1	-3.5%	22
COc1ccccc1NC(=O)CSc1cn(CC(=O)N2CCCC2)c2ccccc12	-0.6%	19
Cc1ccc(S(=O)(=O)C(CNC(=O)C(=O)NCCc2ccc(Cl)cc2)c2ccco2)cc1 (stereo not drawn)	-0.3%	-3
COc1ccc2c(CNCCc3ccco3)c(C(=O)O)n(Cc3ccc(F)cc3)c2c1	-24%	-3
CC(C)(C)c1ccc(C(=O)Nc2nnc3n2CCS3)cc1	-0.3%	17
COc1ccc(NC(=O)Cn2c(=O)c3cccn3c3ccccc32)cc1	51%	-22
O=C(Nc1nnc(S(=O)(=O)N2CCc3ccccc32)s1)c1ccccc1Cl	1.9%	8
COc1ccc(-n2c(=O)c3c(c4cc(OC)ccc4n3C)n(C)c2=O)cc1	-11%	0
C[C@@H]1CN([C@H](C)CO)C(=O)CCCn2cc(nn2)CO[C@H]1CN(C)S(=O)(=O)c1ccccc1F	-1.7%	-13
O=C(Nc1ccccc1)c1cccc(S(=O)(=O)Nc2cccc(F)c2)c1	-0.6%	3
Cc1cn([C@H]2C[C@H](O)[C@@H](/C=C/C(=O)NCc3ccc(N(C)C)cc3)O2)c(=O)[nH]c1=O	-1.5%	6

Next part.
SMILES	ClpP mod	TRPML1 inh
Cc1ccc(NC(=O)c2cc(S(=O)(=O)NCCc3ccc(Cl)cc3)ccc2F)cc1	-4.3%	30
CCOc1ccc(-n2c(SCC(=O)Nc3ccccc3OC)nc3c(oc4ccccc43)c2=O)cc1	-1.8%	-17
CCc1ccc(NC(=O)Cn2c(=O)n(CCCCC(=O)NCc3ccc4c(c3)OCO4)c(=O)c3ccccc32)cc1	u	1
COc1ccccc1NC(=O)c1oc2ccccc2c1NC(=O)COc1ccccc1OC	85%	-10
COc1ccc(S(=O)(=O)c2c(O)c(C)cc(NS(=O)(=O)c3ccc(Cl)cc3)c2C(C)C)cc1	-1.7%	74
O=C(NC1CCCC1)c1ccc(CSc2nc3cccnc3n2Cc2ccccc2)cc1	-20%	18
O=C(NCc1ccc(Cl)cc1)C1CCN(c2nn3cc(-c4ccc(F)cc4)nc3s2)CC1	-0.9%	9
Cc1ccc(-n2nc(C(=O)Nc3cccc(C#N)c3)c3c4ccccc4n(C)c3c2=O)cc1	-12%	-5
CC(C)c1ccc(C2=CC(c3ccc(C(C)C)cc3)n3nnnc3N2)cc1 (stereo not drawn)	-13%	-10
COc1ccc(CNC(=O)Cn2c(=O)oc3cc(S(=O)(=O)NCc4ccccc4)ccc32)cc1	2.4%	-27
COc1ccccc1N1CCN(c2ccc(-c3nc(-c4ccccc4)no3)cc2[N+](=O)[O-])CC1	0.1%	-18

From PubChem
